High-throughput results deposited in PubChem by National Center for Advancing Translational Sciences (NCATS).
gsp antagonist: gsp mutant antagonism; gsp-mutant cells, cAMP HTRF, 30 min; control for the full effect not named in the record; Potency, µM (doses to about 76.9 µM), for inactives: at the top dose activity change, negative = inhibition, usual class: inhibitors; hit rate 0.4% among 340,000; active = falling curve of any shape with a large fitted effect; inconclusive = falling curve, mostly with a smaller effect; inactive = flat or rising curve; cell line not stated here;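 also: intracellular cAMP measured with PDE inhibitor Ro 20-1724 present during compound exposure; potency is read from the fitted curve at half-maximal effect; % is scaled to controls: 0 for no effect and ±100 for the full control effect; nearly all actives have a fitted effect of over 65% in size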
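HTRF cAMP measurement after 30 min RT detection following 30 min, 37C compound treatment alongside […] (added as 300 uM solution) in G418-selected cells seeded at 2000/well and grown 16–24 h.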
D2 ag: human D2 receptor agonism in beta-arrestin assay | DiscoveRx PathHunter D2 beta-arrestin, luminescence, 90 min; 100% = 57 uM dopamine signal | AID 624465 | activation, % (test concentration not listed) | hit rate 0.084% among 360,000 | P14416; in the data active = activation above about 40%; inconclusive = about 15% to 40%; inactive = below about 15%; also: compound concentration not given in the record; the text of the record calls up to 30% inactive
Target sequence (P14416 whole entry, looked up): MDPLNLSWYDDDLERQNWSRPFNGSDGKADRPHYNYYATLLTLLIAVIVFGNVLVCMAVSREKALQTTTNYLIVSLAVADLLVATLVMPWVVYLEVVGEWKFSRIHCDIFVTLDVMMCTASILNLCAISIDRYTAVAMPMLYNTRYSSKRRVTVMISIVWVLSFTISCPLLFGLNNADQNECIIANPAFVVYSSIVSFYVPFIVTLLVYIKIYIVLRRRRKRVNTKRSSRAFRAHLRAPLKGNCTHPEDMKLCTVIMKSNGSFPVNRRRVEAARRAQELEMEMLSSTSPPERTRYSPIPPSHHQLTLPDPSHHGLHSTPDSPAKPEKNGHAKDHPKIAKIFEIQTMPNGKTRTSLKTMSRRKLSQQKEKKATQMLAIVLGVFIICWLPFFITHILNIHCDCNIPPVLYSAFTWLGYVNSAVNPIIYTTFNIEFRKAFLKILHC
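DiscoveRx PathHunter D2 beta-arrestin cells (2,100/well) attached overnight, then compound-stimulated 90 min at 37 C in HBSS/10 mM HEPES/0.1% Tween-20 buffer; beta-galactosidase complementation read by luminescence after 1 h at ambient temperature. Dopamine 57 uM final (EC100) as control.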
gsp agonist: gsp mutant agonism; gsp mutant cells, cAMP HTRF, 30 min; control for the full effect not named in the record; Potency, µM (titrated, usually from 76.9 µM), without a hit: at the top dose activation (cAMP increase), usual class: activators; hit rate 0.13% among 340,000; AID 624287; active = well fitted activation curve with a large enough effect; inconclusive = small, poorly fitted or top-dose-only effect, or another doubt; inactive = no such curve, though single readings can be large or run the other way; cell line not stated here;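 also: phosphodiesterase inhibitor Ro 20-1724 added with compounds to block cAMP breakdown; potency is read from the fitted curve at half-maximal effect; nearly all actives have a fitted effect of over 60% in size; about a fifth of the inactives were tested at one dose only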
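Cells in DMEM/10% FBS with G418 were pretreated with compounds in DMSO plus […] (300 uM stock) for 30 min at 37C. cAMP was measured by HTRF (cAMP-d2 plus anti-cAMP antibody-K) after 30 min at room temperature.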
Menin MLL FP FL: displaces fluorescein MLL peptide from human menin | Fluorescence polarization, fluorescein-MLL peptide displacement from menin | FP activity change, % at 61.4 µM | 290,000 tested, under 10 active | AID 1766; inconclusive = falling polarisation curve, or a change in total fluorescence; inactive = total fluorescence flat and polarisation flat or rising; no compound was filed as active; the % refers to the polarisation; negative = inhibition;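 also: % of control where 0% means no effect; inhibitors lower the polarisation; unlabelled MLL peptide was the positive control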
PINK1 expr mod: modulators of PINK1 expression. AID 624263. hit rate 0.2% among 410,000. Potency, µM (titrated, usually from 76.6 µM), for the others: at the highest dose activation (PINK1 increase), usual class: activators. PINK1 immunofluorescence, high-content cytometry, 24 h; active = well fitted activation curve with a large enough effect; inconclusive = small, poorly fitted or top-dose-only effect; inactive = flat fitted curve, though single readings scatter; cell line not stated here;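 also: potency is read from the fitted curve at half-maximal effect; % of control where 0% means no effect; nearly all actives have a fitted effect of over 65% in size; a mitochondrial uncoupler was the plate control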
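Fluorescence from anti-PINK1 antibody, together with nuclear and cell stains, was scanned on a laser-scanning cytometer. Before staining, stable-line cells were incubated 24 hours with compounds at 5 concentrations; primary antibody 12 h at 10 degrees C.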
Sfp inh: Sfp phosphopantetheinyl transferase inhibition; hit rate 3.5% among 310,000; AID 1490; Potency, µM, inactives show max response, negative = inhibition, most hits filed as inhibitors; Biochemical Sfp PPTase activity, qHTS; Q9F4F7; active = well fitted inhibition curve with a large enough effect; inconclusive = small, poorly fitted or top-dose-only effect, or another doubt; inactive = no such curve, though single readings can be large or run the other way;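 also: the enzyme is Sfp with the accession as filed and its product quenches rhodamine fluorescence; potency is read from the fitted curve at half-maximal effect; 0% = enzyme reaction without inhibitor and -100% = no enzyme wells; top concentration of the series not given in the record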
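Reaction rates are the 30-min fluorescence difference (ex 525, em 598 nm) in wells containing 15 nM Sfp, 5 uM rhodamine-CoA and 12.5 uM BHQ-2-YbbR at pH 7.6 with 10 mM MgCl2.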
ClpP mod: qHTS Assay for Activators of ClpP; Potency, µM (titrated, usually from 57.5 µM), inactives show top-dose activity change, negative = active; ATP-dependent Clp protease proteolytic subunit (Bacillus subtilis (strain 168)), P80244; purified B. subtilis ClpP, FRET peptide cleavage, 20 min; hit rate 1.9% among 340,000; AID 651965, 2013; active = well fitted falling curve with a large enough effect; inconclusive = small, poorly fitted or top-dose-only effect; inactive = no such curve, though single readings can be large or run the other way; also: potency is read from the fitted curve at half-maximal effect; the source files actives as falling curves though it sought activators and does not explain the sign; nearly all actives have a fitted effect of over 65% in size; many hits overshoot -100%
Target sequence (P80244 whole entry, looked up): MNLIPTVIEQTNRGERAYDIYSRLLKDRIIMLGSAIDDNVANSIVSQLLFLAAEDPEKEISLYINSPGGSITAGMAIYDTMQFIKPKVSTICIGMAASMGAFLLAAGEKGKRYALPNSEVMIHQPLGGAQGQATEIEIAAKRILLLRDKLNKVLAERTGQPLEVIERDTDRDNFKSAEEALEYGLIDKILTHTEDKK
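FRET quenching reversal measured ClpP activation: 10 microg/mL B. subtilis ClpP at pH 8 with the FRET-FV decapeptide, read at 430 nm after 320 nm excitation. The 20-min minus 0-min signal was scaled between DMSO/no-enzyme wells and ADEP (5.8 microM final).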
* = called active by the depositor; ? = inconclusive; . = not tested or not shown; & = joins results of further samples; [ ] = another dose, or the depositor's remark.

SMILES	gsp antagonist	D2 ag	gsp agonist	Menin MLL FP FL	PINK1 expr mod	Sfp inh	ClpP mod
COCC1CCCN(Cc2cn(-c3ccccc3F)nc2-c2cc(C)sc2C)C1 (stereo not drawn)	-7%	-4.0	22%	2.7	8.3%	-23%	-2.9%
COc1ccccc1C(=O)NC(CCSC)C(=O)NNC(=O)c1ccccc1C (stereo not drawn)	-12%	-2.1	16%	.	4.0%	.	-8.1%
N#Cc1cnc2cc(-c3ccccc3)nn2c1N	8%	0.5	3%[15.4 µM]	6.4	2.4%	-2%	.
CCOC(=O)c1cc(-c2ccc(C#N)cc2)nc2c1c(C)nn2CCC#N	-2%	-2.7	28%	3.8	1.6%	-2%	?
COc1ccc(CCCC(=O)Nc2ccc(F)cc2)cc1	-11%	-0.9	?	5.4	0.6%	9%	-0.9%
CCOC(=O)c1nc2c(ccc3ccccc32)cc1C	-7%	-1.7	-4%[15.4 µM]	1.3	1.0%	-7%	.
CCc1cc2c(=O)n(Cc3ccco3)c(SCC(=O)NC3CCS(=O)(=O)C3)nc2s1 (stereo not drawn)	-18%	0.7	-49%[inhibitor]	3.0	0.7%	32µM*	-5.6%
Cc1ccc(OCC(=O)Nc2cc(C(=O)O)cc(C(=O)O)c2)cc1C	.	-2.6	16%[15.4 µM]	5.9	-0.9%	?	.
O=C(Nc1ccc2nc(C3CC3)n(Cc3ccccc3)c(=O)c2c1)C1CC1	6%	-0.8	21%	-0.1	6.0%	7%	9.2%
CCC(=O)N1CCc2cc(S(=O)(=O)NCCC(=O)Nc3ccccc3C)ccc21	-12%	-0.5	-40%[inhibitor]	-1.4	0.8%	11%	-3.9%
NC(=O)CNC(=O)c1cccc(Cl)c1	10%	3.0	-43%[inhibitor]	2.4	2.4%	12%	.
C=C(C)c1cccc(C(C)(C)NC(=O)Nc2ccc(OC)cc2)c1	15%	-2.4	-24%	2.2	9.2%	20%	1.2%
CC1CCN(CCNC(=S)Nc2ccc(Cl)cc2)CC1	15%	-2.8	-3%[15.4 µM]	-4.2	0.0%	3%	7.0%
CCC(=O)N1CCCC(C)(C(=O)Nc2ccc3oc(CC)nc3c2)C1 (stereo not drawn)	.	-2.1	.	.	1.5%	.	-0.9%
O=C(Nc1ccccc1C(=O)O)c1cccc(NC(=O)c2ccccc2Br)c1	0%	0.8	-20%	2.8	3.7%	32%[activator]	.
COCC(=O)NC1CCN(C(=O)NCc2ccccc2)CC1	6%	0.3	-3%	1.5	-2.0%	13%	-2.7%
CSc1ncc(Cl)c(C(=O)Nc2c(C)cccc2C)n1	-5%	-1.7	-23%	-3.1	3.3%	11%	-0.9%
CCCc1ncc(C(O)c2ccc(OC)cc2)n1C (stereo not drawn)	3%	2.5	-30%	4.7	.	19%	0.4%
O=C(CN1CCCCC1)NNc1nc(-c2ccccc2)c2cc(Cl)ccc2n1	5%	-2.6	4%[15.4 µM]	5.0	2.0%	-21%	-0.2%
CCN(CC)S(=O)(=O)c1ccc(NC(=O)Nc2cccc(C(F)(F)F)c2)cc1	?	1.5	-25%	2.7	?	?	-2.4%
CC(C)=CC(=O)Nc1nnc(-c2ccccc2C)s1	.	-0.1	19%[15.4 µM]	2.7	3.9%	17%	.
N#Cc1ccc(CSc2nnc(NC(=O)c3ccc4ncsc4c3)s2)cc1	19%	-3.5	25%[15.4 µM]	?	7.4%	45µM*	.
Cc1cccc(NS(=O)(=O)c2cccc(C(=O)N3CCCC3)c2)c1	-5%	2.1	-48%	.	0.1%	.	-2.8%
COc1ccc(CNC(=O)c2cc(-c3cccs3)on2)cc1	14%	-0.3	-33%	7.1	2.5%[38.3 µM]	-4%	-5.5%
O=[N+]([O-])c1ccc(CCNc2cccc3ccccc23)c([N+](=O)[O-])c1	-1%	13	-6%	4.3	?	12%	?
COc1ccccc1NC(=O)Nc1ccc(F)c(F)c1	-8%	-6.4	1%	3.8	12%	-8%	.
CN(C)CCN(C(=O)C1=COCCO1)c1nc2ccc(Cl)cc2s1	11%	-9.8	8%	-3.9	-0.3%	-9%	-3.9%
Cc1ccc(CS(=O)(=O)c2cn(CC(=O)Nc3ccon3)c3ccccc23)cc1	-10%	-4.0	17%[15.4 µM]	.	-1.4%	.	.
Cc1ccc(-n2ccnc(SCC(=O)NC3CCCCC3)c2=O)cc1F	3%	-1.7	-18%[15.4 µM]	.	5.0%	.	.
Cc1cc(C)cc(N(CC(=O)Nc2cc(C)ccc2C)S(=O)(=O)c2c(C)[nH]c(=O)[nH]c2=O)c1	-14%	3.7	?	.	-0.5%	12%	-1.0%

An excerpt from above with just Sfp inh, PINK1 expr mod and D2 ag.
smiles	Sfp inh	PINK1 expr mod	D2 ag
COc1ccc(CNC(=O)c2cc(-c3cccs3)on2)cc1	-4%	2.5%[38.3 µM]	-0.3
O=[N+]([O-])c1ccc(CCNc2cccc3ccccc23)c([N+](=O)[O-])c1	12%	?	13

(more compounds)
SMILES	gsp antagonist	D2 ag	gsp agonist	Menin MLL FP FL	PINK1 expr mod	Sfp inh	ClpP mod
COc1cccc2c(SCC(=O)N/N=C/c3ccc(O)c(O)c3)cc(C)nc12	5%	2.7	-12%	5.5	-1.3%	4%	.
CCOC(=O)C1(CCOC)CCN(C(C)CCc2ccc(OC)cc2)CC1 (stereo not drawn)	9%	-2.1	-23%	5.5	0.5%	4%	-2.3%
CCCN(CCC)CCCNC(=O)Cn1cnc2sc(C)c(S(=O)(=O)N3CCC(C)CC3)c2c1=O	8%	2.9	-10%	-0.5	0.9%&-0.6%	7%	1.6%
c1ccc(CSc2nnc3ccc(-c4ccncc4)nn23)cc1	1%	-6.1	0%	-3.5	-1.0%	14%	1.0%
COc1cccc(CN(C)C(=S)Nc2cccc(C)c2)c1	0%	-4.3	8%[15.4 µM]	2.2	-2.8%	19%	1.1%
O=C(Nc1ccccc1C(=O)NCCc1ccccc1)c1cnccn1	-14%	-1.8	-22%	-0.5	7.5%	3%	.
O=C(NCc1ccccc1)c1ccc(CN(c2ccccn2)S(=O)(=O)c2ccccc2)cc1	-8%	-4.6	-12%	-1.0	-0.6%	3%	20µM*
Cc1cccc(OCCOC(=O)Nc2ccccc2)c1	9%	-0.5	26%	1.7	3.9%	7%	-0.2%
CN(CC(=O)Nc1ccccc1Cl)C(=O)Cn1cc(C(F)(F)F)cc(Cl)c1=O	7%	1.1	-8%[15.4 µM]	.	-0.5%	.	-4.4%
COc1ccccc1-c1ccc2ncnc(NCc3ccccc3)c2c1	.	.	.	0.3	2.3%	6%	.
O=c1[nH]c(C2CCN(S(=O)(=O)/C=C/c3ccccc3)CC2)nc2c1nnn2Cc1ccc(F)cc1	-16%	3.4	-16%	4.8	3.1%	10%	.
CC(=O)NC1=NN(C(C)=O)C(C)(c2ccco2)S1 (stereo not drawn)	3%	-1.1	-35%[inhibitor]	6.5	3.8%	?	.
O=C(NC1CCSC1)c1cccc(Cl)c1 (stereo not drawn)	8%	-6.5	-10%[15.4 µM]	3.9	0.5%	0%	-2.1%
CC(C)COc1ccc(CSCCNC(=S)Nc2ccccc2)cc1	-3%	-1.9	20%	-1.2	?	23%	-6.2%
O=C(Cc1cccs1)N(CC1CCCO1)C1(C(=O)NC2CCCCC2)CCCCC1 (stereo not drawn)	10%	-2.6	8%[15.4 µM]	0.1	5.3%	?	.
O=[N+]([O-])c1c(NCc2ccccc2)cc(N2CCc3ccccc3C2)c2nonc12	1%	0.7	-11%	?	-0.5%	-17%	1.2%
O=C(c1cccs1)C1C(c2ccc(Br)cc2)NC(=S)NC1(O)C(F)(F)F (stereo not drawn)	-10%	-3.7	-5%	.	6.2%	-18%	-1.0%
O=C(NC(=S)N1CCOCC1)c1cn(-c2ccccc2)nc1-c1ccc(F)cc1	-33%	-1.8	-12%	.	2.8%	.	3.0%
CC(C)CNC(=O)c1cccc(NC(=O)COc2cccc([N+](=O)[O-])c2)c1	-8%	0.1	-87%[inhibitor]	-2.2	-0.3%	-9%	.
CCOC(=O)c1sc2nc(C)c3c(c2c1N)CC(C)(C)OC3	-3%	2.7	?	0.5	2.5%	10%	28µM*
CC(C)(C#CCN1CCCC1)OCCC#N	7%	-2.8	2%	-1.5	-1.5%	-6%	1.0%
CC(C)=CCc1c(O)cc(O)c2c(=O)c(O[C@@H]3O[C@@H](C)[C@H](O)[C@@H](O)[C@H]3O)c(-c3ccc(O)cc3)oc12	-22%	14	.	.	1.7%	.	-0.9%
CC(=O)c1ccc(C(=O)N2CCC(CO)(Cc3cccc(C(F)(F)F)c3)CC2)cc1	0%	2.9	4%	-0.1	0.2%	17%	.
CC1CCCCC1NC(=O)c1cc2c(s1)CS(=O)(=O)C2 (stereo not drawn)	3%	-1.5	?	-1.3	-0.1%[38.3 µM]	10%	-1.7%
CC(=O)c1ccc(OCCCC(=O)NC(C)c2ccc(S(N)(=O)=O)cc2)cc1 (stereo not drawn)	-5%	-2.9	16%	0.4	0.5%	11%	-1.4%
O=C(NN=C1c2ccccc2-c2ccccc21)c1ccccn1	-15%	-5.3	5%	-1.2	20%[38.3 µM]	?	1.3%
CC(CN(C)Cc1ccccc1)OC(=O)c1ccccc1F (stereo not drawn)	4%	-1.3	22%	1.5	10%	-8%	1.0%
Cc1cccc(NC(=O)CSc2nnc(CCCCCNC(=O)OC(C)(C)C)o2)c1C	-21%	-3.2	-10%	1.0	-1.5%	-3%	0.3%
CC1CCCC(NC(=O)COC(=O)c2ccc3ccccc3n2)C1C (stereo not drawn)	19%	-0.7	-5%	11	.	13%	-6.6%
COC(=O)C(F)(F)Sc1c(C)[nH]c2ccccc12	-24%	-2.4	1%	0.8	.	0%	1.9%
Cc1cccc(/C=N/NC(=O)Cn2nc(C)cc2C)n1	10%	-1.6	10%[15.4 µM]	.	0.4%	?	-3.8%
CC(C)NC(=O)N(C)C[C@H]1Oc2c(NC(=O)c3ccc(-c4nccs4)cc3)cccc2C(=O)N([C@@H](C)CO)C[C@H]1C	9%	-2.1	-25%	.	-0.2%	.	1.0%

Not a hit list; about 5.1% have a hit in one of these screens.
